From PubChem BioAssay
Mtb betalactam: beta-lactam sensitization of Mtb H37Rv, H37Rv. 330,000 compounds, 0.27% hits. inhibition, % at 25 µM. M. tuberculosis H37Rv growth with meropenem, percent inhibition; hits of this screen are not shown here;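 active means about 74% or more and at least 40 points above the plate without the antibiotic, then above 30% in a dose series; inconclusive means first-round hits that could not be retested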;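 further: growth measured after seven days incubation then overnight dye step; 0% = bacteria only wells and 100% = bacteria with antibiotic; twin plates without the antibiotic show which effects depend on it; some results filed as inactive read as strong as hits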
Mtb H37Rv: M. tuberculosis H37Rv growth inhibitors, H37Rv strain (AID 1626); inhibition, % at 10 µM, or IC50 in µM where a hit was titrated; M. tuberculosis H37Rv growth inhibition; higher % means a stronger effect; 220,000 compounds, 0.95% hits;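 active means confirmed in a dose series; inconclusive means inhibition above 80% but not taken into the dose series; inactive means below 80% or under 30% at every dose of the series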;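 further: bacteria incubated seven days before Alamar blue readout; 0% = bacteria only wells and 100% = bacteria with antibiotic wells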
YopH PTP inh: YopH tyrosine phosphatase inhibitors, primary screen, biochemical, fluorescence Ex485/Em525 | 140,000 compounds, 0.16% hits | YopH tyrosine phosphatase [Yersinia enterocolitica] | inhibition, %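 (about 10 µM by stock and volumes)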 | AID 898, 2007;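 active means inhibition of 50% or more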;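 further: controls were vehicle for no effect and minimum signal wells for full effect; inactives centre near -20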
RecA splice inh: Mtb RecA intein splicing inhibitors, primary screen, biochemical, fluorescence, HTS | Protein RecA (Mycobacterium tuberculosis (strain ATCC 25618 / H37Rv)), P9WHJ3 | inhibition, %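 (about 9 µM by stock and volumes)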 | cell-free RecA intein splicing | 290,000 compounds, 0.75% hits | AID 2221, 2009; in the data active means inhibition above about 30%; inconclusive means no clear call, values can overlap the other calls;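 further: 0% = vehicle wells and 100% = reference inhibitor control wells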
Target sequence (P9WHJ3 whole entry, looked up, canonical isoform): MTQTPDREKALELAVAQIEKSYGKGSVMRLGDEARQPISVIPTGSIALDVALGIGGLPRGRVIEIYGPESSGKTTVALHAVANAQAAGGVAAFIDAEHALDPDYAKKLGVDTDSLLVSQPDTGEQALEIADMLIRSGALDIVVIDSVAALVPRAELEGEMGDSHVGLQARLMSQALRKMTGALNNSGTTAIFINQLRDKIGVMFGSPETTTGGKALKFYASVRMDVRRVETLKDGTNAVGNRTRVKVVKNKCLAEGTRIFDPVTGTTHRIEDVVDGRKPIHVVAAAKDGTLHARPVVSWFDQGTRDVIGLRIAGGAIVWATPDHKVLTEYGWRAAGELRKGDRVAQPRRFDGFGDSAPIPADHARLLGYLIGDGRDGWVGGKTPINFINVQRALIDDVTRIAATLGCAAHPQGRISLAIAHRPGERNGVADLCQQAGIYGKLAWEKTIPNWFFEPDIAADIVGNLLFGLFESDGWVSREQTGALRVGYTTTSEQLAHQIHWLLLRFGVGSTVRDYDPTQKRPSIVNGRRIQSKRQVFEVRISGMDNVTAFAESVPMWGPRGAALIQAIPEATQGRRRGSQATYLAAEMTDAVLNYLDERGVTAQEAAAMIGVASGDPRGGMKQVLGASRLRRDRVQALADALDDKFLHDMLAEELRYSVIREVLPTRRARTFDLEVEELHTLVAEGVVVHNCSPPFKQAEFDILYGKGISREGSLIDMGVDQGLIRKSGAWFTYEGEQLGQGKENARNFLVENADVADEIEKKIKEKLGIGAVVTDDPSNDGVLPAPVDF
Arbovirus inh: antivirals against arbovirus infection, primary screen, cell-based, full library, 10K replicate subset. arbovirus infection cell-based antiviral screen. inhibition, % at 10 µM. 200,000 compounds, 0.37% hits;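 active means inhibition from about 30%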;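 further: bluetongue infection of BSR cells; cell survival read as ATP light after 72 h; 0% = infected wells without compound and 100% = uninfected wells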
* = called active by the depositor; i = inactive; ? = inconclusive; . = not tested or not shown; & = joins results of further samples. Only part of the results is shown; rates above refer to the full screens.

SMILES | Mtb betalactam | Mtb H37Rv | YopH PTP inh | RecA splice inh | Arbovirus inh
COC(=O)c1ccc(CNC(=O)CNc2cc(C(F)(F)F)ccc2N2CCOCC2)cc1 | -13 | -17% | -17 | -1.9 | 15
O=C(CC1CCCC1)N1CCCC(Nc2cccc(F)c2)C1 (stereo unspecified) | -9 | . | . | 0.6 | .
COc1ccc(CCNC(=O)CSc2ccc(-c3ccccc3)nn2)cc1 | 4 | 2% | -19 | 5.8 | -6
COc1cccc(C2=NOC(C(=O)Nc3ccccc3SC)C2)c1 (stereo unspecified) | 1 | -8% | -18 | . | -5
O=C(NCc1ccc2c(c1)OCO2)C(=O)NCC1OCCN1S(=O)(=O)c1ccc(Cl)cc1 (stereo unspecified) | 33 | . | . | -2.6 | .
CC1=CC(C)(C)N=C(Nc2ccc(C)cc2)S1 | 3 | 7% | -20 | 0.9 | 7
Cc1ccc2nc(NC(=O)CC3Oc4ccccc4NC3=O)sc2c1 (stereo unspecified) | 1 | -3% | . | -0.7 | .
CCN(CC)CCNC(=O)C1CCN(S(=O)(=O)c2c(C)noc2/C=C/c2ccccc2F)CC1 | 0 | . | . | 8.7 | .
COc1ccc(N2CCN(C(=O)CSc3nnc(-c4ccc5[nH]c(C)c(C)c5c4)o3)CC2)cc1 | -1 | -7% | -48 | 0.6 | -5
c1ccc(CN2CCC3(CC2)Nc2ccccc2CO3)cc1 | -11 | -8% | 36 | 3.8 | -1
CC(=O)Nc1ccc(N/C(N)=N/c2nc(C)cc(C)n2)cc1 | -7 | 5% | . | 1.3 | 5
Cn1c2c(c(=O)c3ccccc31)CCC(C)(C)O2 | -2 | -5% | -34 | -1.4 | -7
FC(F)(F)c1cnc(N2CCCN(C(=S)Nc3ccccc3)CC2)c(Cl)c1 | 4 | 7% | . | 11 | .
CCOC(=O)c1cnn(-c2ccccc2)c1-n1cccc1C(=O)C(=O)N(CC)CC | -3 | 3% | . | 0.8 | 3
CCOC(=O)C1C(=O)Nc2nc3ccccc3n2C1C(C)C (stereo unspecified) | 9 | -1% | -50 | -3.5 | -3
CC(=O)OC(C(=O)NC1CCCCC1)c1ccccc1F (stereo unspecified) | 3 | 1% | . | . | 6
COC(=O)c1ccccc1S(=O)(=O)N1CCC(C(=O)N(C)CCOc2ccccc2)CC1 | -13 | . | . | 1.0 | .
O=C(CCc1nnc2n(Cc3ccc(Cl)cc3)c(=O)c3ccccc3n12)N1CCN(c2ccccn2)CC1 | 11 | . | . | 4.2 | .
COc1ccc(/C=C2\Oc3cc(OCC(=O)N4CCC[C@H]4C(=O)O)ccc3C2=O)c(OC)c1OC | 2 | . | . | 4.1 | .
Oc1c(C(c2ccc(Cl)cc2)N2CCCC2)cc(Cl)c2cccnc12 (stereo unspecified) | 98 | 52% | . | 11 | -33

Among those listed so far, 4 contain an aryl methoxy group:
SMILES | Mtb betalactam | Mtb H37Rv | YopH PTP inh | RecA splice inh | Arbovirus inh
COc1ccc(CCNC(=O)CSc2ccc(-c3ccccc3)nn2)cc1 | 4 | 2% | -19 | 5.8 | -6
COc1cccc(C2=NOC(C(=O)Nc3ccccc3SC)C2)c1 (stereo unspecified) | 1 | -8% | -18 | . | -5
COc1ccc(N2CCN(C(=O)CSc3nnc(-c4ccc5[nH]c(C)c(C)c5c4)o3)CC2)cc1 | -1 | -7% | -48 | 0.6 | -5
COc1ccc(/C=C2\Oc3cc(OCC(=O)N4CCC[C@H]4C(=O)O)ccc3C2=O)c(OC)c1OC | 2 | . | . | 4.1 | .

The listing continues:
SMILES | Mtb betalactam | Mtb H37Rv | YopH PTP inh | RecA splice inh | Arbovirus inh
Cc1cc(C(=O)CS(=O)(=O)c2ccc(F)cc2)cc(C)c1O | -4 | . | . | 0.9 | .
COc1ccc(/C=N/N2CCN(Cc3ccccc3)CC2)cc1 | -6 | . | . | -3.2 | .
CC(C)c1ccccc1NC(=O)Cn1c(/C=C/c2ccccc2)nc2ccccc21 | 6 | -10% | . | -0.4 | .
Cc1ccc(CNC(=O)C2CCC(=O)N2Cc2ccccc2Cl)cc1 (stereo unspecified) | -8 | . | . | -3.5 | .
O=C1CN(C(=O)c2cc3ccccc3oc2=O)C(c2ccc(F)cc2)c2cc(Br)ccc2N1 (stereo unspecified) | -3 | . | -2 | 9.0 | -3
O=[N+]([O-])c1ccc(Oc2ccc(-c3nnco3)cc2)c(Cl)c1 | 5 | . | . | 2.0 | .
O=C(NCCS(=O)(=O)NCC1CCCO1)c1ccccc1 (stereo unspecified) | -1 | . | . | -1.0 | .
Cc1csc(NC(=O)C2CC(=O)N(Cc3ccco3)C2)n1 (stereo unspecified) | -7 | 5% | . | -0.6 | -3
Cc1ccc(N2C(=O)CS/C2=C(\C(Cl)=C(Cl)Cl)[N+](=O)[O-])cc1 | -1 | -6% | -27 | 5.6 | 0
COc1ccc(C)c2sc(N(CCN(C)C)C(=O)c3cccc(N4C(=O)CCC4=O)c3)nc12 | 4 | . | . | -0.9 | .
CC(C)(CNC(=O)c1cccc(NS(=O)(=O)c2ccc(Br)cc2)c1)N1CCOCC1 | 2 | . | . | -2.1 | .
CCOC(=O)C1(CCOc2ccccc2)CCN(Cc2ccc(C)o2)CC1 | 6 | 6% | . | -1.9 | 13
O=C(NC(=S)Nc1ccccc1C(=O)O)c1ccc(-c2ccc(Br)cc2)o1 | 69 | . | . | 5.7 | .
Cc1cccc(NS(=O)(=O)c2ccc(Br)s2)n1 | 16 | 7% | -28 | 1.4 | 0
O=C(COC(=O)Cn1[nH]c(=O)c2ccccc2c1=O)Nc1ccc2c(c1)OCO2 | -5 | -10% | -39 | . | 5
Cc1nnc2ccc(-c3ccc(NS(=O)(=O)c4ccccc4F)cc3)nn12 | -15 | . | . | 7.4 | .
COCCNCCOc1ccc(C)cc1[N+](=O)[O-] | -4 | 5% | . | -2.6 | 3
CCCCn1c(O)c(C(CC)=NCc2ccco2)c(=O)[nH]c1=O | 0 | 7% | -8 | -0.3 | -2
COC(=O)[C@@H]1[C@@H](C(=O)OC)C2(c3ccccc3-c3ccccc32)N(c2ccc(Cl)cc2)N1C#N | 18 | 15% | -20 | 51* | -35
Cc1ccc2c(c1)N(C(C)C(=O)N1CCC3(CC1)OCCO3)C(=O)CO2 (stereo unspecified) | 1 | . | . | -0.2 | .
COc1cc(NC(=S)Nc2ccc3c(c2)OCCO3)cc(OC)c1OC | -6 | -1% | . | -7.7 | .
CC(C)CN1CCN(Cc2cnc(N3CCOCC3)s2)CC1CCO (stereo unspecified) | 3 | -8% | . | -1.8 | 2
COC(=O)[C@@H](NC(=O)O[C@@H]1C(=O)c2ccc(OC)cc2O[C@H]1c1cccc(C(F)(F)F)c1)C(C)C | 11 | . | -23 | 4.8 | 4
Nc1nc(-c2ccccc2)cc(C(F)(F)F)n1 | -18 | -3% | -10 | 2.9 | 9
O=S(=O)(Nc1ccc(-c2ccc3nncn3n2)cc1)c1ccc(Cl)s1 | -1 | . | . | -3.1 | .
COc1cc2c(cc1OC)N1C(=O)CC(OCC(=O)O)C3C4CC5(CCN5C(=O)C4=O)C2C31 (stereo unspecified) | -7 | -2% | . | -0.9 | -5
COc1ccc(C2C3=C(CCCC3=O)Nc3c(-c4ccccc4)c(C)nn32)cc1 (stereo unspecified) | -4 | -1% | -26 | -2.8 | -12
CCOC(=O)c1ccc(NC(=O)CSc2nnc(COc3ccccc3)n2C)cc1 | -7 | ? | 30 | -1.1 | -1
COc1ccc(NC2CCCN(C(=O)CCc3scnc3C)C2)cc1 (stereo unspecified) | -7 | . | . | -4.8 | .
CCOCCCNC(=S)NCCNc1nc2ccc(C)cc2cc1C#N | -3 | 0% | -5 | -60 | 1
CCCCc1cc(=O)oc2cc(OCC(=O)Nc3cccnc3)c(Cl)cc12 | 16 | . | . | -0.5 | .
Clc1ccccc1OCCn1cnc2ccccc21 | -1 | -5% | -32 | 2.6 | 7
CCOC(=O)CSc1nc2cc3c(cc2cc1C#N)OCO3 | 53 | -2% | 0 | . | -1
Nn1c(SCC(=O)NNC(=O)c2ccccc2)nnc1-c1ccccc1F | 4 | . | . | 0.8 | .
CCCCC(=O)Nc1ccc(Br)cn1 | -2 | 82% | -25 | 1.3 | -4
Cc1ccc2[nH]c(=O)c(CN(CCCN(C)C)C(=O)Nc3ccc(Cl)cc3)cc2c1 | -9 | 3% | -16 | 1.2 | -42
COc1cccc(CN2C(=O)c3cccc(N)c3C2=O)c1 | 1 | 1% | -9 | i | -9
Cc1nnc2n(Cc3ccccc3)c(=O)c3c4c(sc3n12)COC(C)(C)C4 | -1 | -4% | -34 | -0.6 | 3
O=C(CSc1nnc2scc(-c3ccccc3)n12)Nc1ccc2c(c1)OCCO2 | 61 | -4% | 16 | 0.8 | 8
O=C(Nc1ccc(Br)cc1)c1ccccc1Br | -3 | . | . | -1.4 | .

Quoted from the entries so far for reference:
SMILES | Mtb betalactam | Mtb H37Rv | YopH PTP inh | RecA splice inh | Arbovirus inh
COc1cc(NC(=S)Nc2ccc3c(c2)OCCO3)cc(OC)c1OC | -6 | -1% | . | -7.7 | .
CC(C)CN1CCN(Cc2cnc(N3CCOCC3)s2)CC1CCO (stereo unspecified) | 3 | -8% | . | -1.8 | 2

(listing goes on)
SMILES | Mtb betalactam | Mtb H37Rv | YopH PTP inh | RecA splice inh | Arbovirus inh
CC(C)(C)c1ccc(-c2cnco2)cc1 | -6 | 2% | . | 0.2 | 2
CCN1CCN(S(=O)(=O)c2c(C)[nH]c(C)c2C(=O)N2CCCCC2)CC1 | -2 | . | . | -0.6 | .
O=C(/C=C/c1ccc2ccccc2n1)N1CCN(c2ccccc2)CC1 | 9 | 0% | . | -0.9 | -4
Cc1c(Cl)cccc1NC(=S)N/N=C/c1ccccc1Cl | -10 | 7% | . | -0.7 | .
CCOC(=O)Oc1ccc2oc(C)c(C(=O)OCCOC)c2c1 | 98 | 26µM* | -4 | -1.4 | 4
O=C(CSc1ccccc1)Nc1cc(S(=O)(=O)N2CCOCC2)ccc1N1CCOCC1 | 3 | 2% | . | -1.9 | -12
CCOC(=O)C1=C(COc2ccccc2)NC(=O)NC1c1cccc([N+](=O)[O-])c1 (stereo unspecified) | -5 | . | . | -1.9 | .
CCOc1ccccc1NC(=O)C(Sc1nnnn1C)c1ccccc1 (stereo unspecified) | -1 | 7% | . | -0.7 | -3
CN1CCN(C(=O)c2cc(Oc3c(F)c(F)c(F)c(F)c3F)cc(C(=O)N3CCN(C)CC3)c2)CC1 | 3 | 8% | . | -2.6 | 6
Cc1c(O)c2c(=O)n(-c3ccccc3)c(-c3ccccc3)cc2oc1=O | 5 | -5% | -24 | -1.2 | 4
CC(NC(=O)C1c2ccccc2Oc2ccccc21)C1CCCO1 (stereo unspecified) | 13 | 6% | . | -3.0 | 0
COc1ccc(NC(=O)Cn2c(CCC(=O)O)ccc2-c2ccc(C)cc2)cc1 | -2 | 6% | . | . | 4
CCOC(=O)/C(C#N)=C1/CCCCCN1C | -4 | -5% | -10 | -0.1 | 0
Cc1ccc(Nc2nc(-c3c(C)n(C)n(-c4ccccc4)c3=O)c(C)s2)cc1 | -7 | -6% | -37 | -6.2 | -1
CC(=O)N1N=C(c2ccc(Cl)cc2)CC1c1ccc([N+](=O)[O-])cc1 (stereo unspecified) | 1 | . | . | 0.9 | .
COc1ccc(NC(=O)C2=C(C)C(=O)OC23CCC(C)CC3)c(OC)c1 (stereo unspecified) | 1 | 4% | -36 | -3.9 | -11
CCOC(=O)c1cnc2c(-c3ccc(Cl)cc3)cnn2c1C | -6 | 2% | . | . | -4
CCCC(=O)NC(Oc1ccc(OC)cc1)C(Cl)(Cl)Cl (stereo unspecified) | 83 | -8% | . | 1.4 | -4
C=CCN1C(=S)CC(c2ccccc2)=Nc2ccccc21 | 7 | . | . | 13 | .
ClC(Cl)(Cl)c1nc(N/N=C/c2ccncc2)c2ccccc2n1 | 0 | -3% | . | -0.8 | 14
NC(=O)CC(NC(=O)Cc1ccc(Cl)cc1)c1ccc(NC2CCCCCC2)c([N+](=O)[O-])c1 (stereo unspecified) | -5 | . | . | -1.0 | .
O=C(Nc1ccccc1Cl)c1ccccc1 | -4 | 3% | . | -4.5 | 5
Cc1cc(C(=O)Nc2ccc3c(c2)OCO3)cs1 | 8 | 4% | 0 | 2.9 | -9
CSCCC(NC(=O)c1ccccc1)C(=O)NC1CCCC1 (stereo unspecified) | -9 | -13% | 6 | 3.7 | 8
O=C1CN(C(=O)c2cccc(F)c2)C(c2ccc(F)cc2)c2cc(F)ccc2N1 (stereo unspecified) | 4 | . | . | 1.7 | .
Cn1c[n+](C)cc1C(O)c1ccccc1 (stereo unspecified) | -7&7 | 1%&1% | -44&-117 | 3.9&-2.1 | 1&-1
Cc1ccc(Cl)cc1NC(=O)N[C@@H](CC(C)C)C(=O)O | 2 | -6% | . | -1.4 | .
Cc1ccc(OC(C)C(=O)Nc2ccc3c(c2)n(C)c(=O)n3C)cc1C (stereo unspecified) | 5 | . | . | -5.1 | .
